Compound activity deposited in PubChem BioAssay by National Center for Advancing Translational Sciences (NCATS).
VDR inhibitor: blocks the human vitamin D receptor; P11473; VDR-SRC2-3 peptide fluorescence polarization, 2 h; Potency, µM, inactives show max response, negative = inhibition, hits mostly inhibitors; 400,000 tested, 0.93% active; AID 504847; active means well fitted inhibition curve with a large enough effect; inconclusive means small, poorly fitted or top-dose-only effect, or another doubt; inactive means no such curve, though single readings can be large or run the other way; further: series mostly up to about 120 µM
Target sequence (P11473 whole entry, looked up): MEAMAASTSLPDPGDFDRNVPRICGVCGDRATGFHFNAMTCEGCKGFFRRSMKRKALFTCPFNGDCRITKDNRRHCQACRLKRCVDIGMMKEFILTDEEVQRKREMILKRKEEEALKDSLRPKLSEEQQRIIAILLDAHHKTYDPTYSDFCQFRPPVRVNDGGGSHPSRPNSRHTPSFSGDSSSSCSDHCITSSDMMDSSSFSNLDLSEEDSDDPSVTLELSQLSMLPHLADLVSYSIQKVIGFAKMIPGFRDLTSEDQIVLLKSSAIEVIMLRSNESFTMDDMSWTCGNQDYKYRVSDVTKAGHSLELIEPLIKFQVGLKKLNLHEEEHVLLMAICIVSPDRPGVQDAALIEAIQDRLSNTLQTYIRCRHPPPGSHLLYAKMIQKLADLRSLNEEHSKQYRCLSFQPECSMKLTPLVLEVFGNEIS
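Reagent solutions, kept cold and dark, are dispensed first; compounds are then pinned in at 23 nl, plates briefly spun, and incubated 2 h at ambient temperature. Inhibition of VDR–SRC2-3 peptide binding is read by fluorescence polarization.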
An asterisk follows results filed as active; ? = inconclusive; & = joins results of further samples; [ ] = dose if it differs, or a comment. On the % scale 0 is the no-effect control and ±100 the full control effect; potency means the concentration at half of the fitted maximal effect.

SMILES | VDR inhibitor
CCOC(=O)C1=C(c2ccccc2)NC(SCC(=O)Nc2cccc(C)c2)=C(C#N)C1c1ccco1 (centres undefined) | -2%
O=C(CSc1nc2c([nH]c3ccccc32)c(=O)n1-c1cccc(C(F)(F)F)c1)N1CCCC1 | -7%
CN(c1ccccc1C(=O)NCc1ccccn1)S(C)(=O)=O | 16%
CCc1ccc(CN2CCN(C(=O)c3cccc(OC)c3OC)CC2)cc1 | ?
CC(=O)c1cccc(NC(=O)c2ccc3c(c2)OCO3)c1 | 79µM*
Cc1ccc(OCC(=O)Nc2ccc(S(=O)(=O)Nc3cc(C)nc(C)n3)cc2)c(C)c1 | 77%[activator]
CN(CCOc1ccc(Cl)cc1)C(=O)c1cccc(S(=O)(=O)N2CCN(Cc3ccccc3)CC2)c1 | 2%
COc1ccc(NC2=CC(=O)CC(C)(C)C2)cc1OC | 4%
Cc1ccc2c(c1)-c1c(cnn1CC(=O)NC(C)CCc1ccco1)CO2 (centres undefined) | -21%
Cc1ccc(Cn2cc(SCC(N)=O)c3ccccc32)cc1 | 0%
CCN(CC)CCNC(=O)c1ccc(NC(=O)c2c(F)cccc2Cl)cc1 | -11%
CCOC(=O)c1c(C)oc2nc(C)nc(Nc3cccc(OC)c3)c12 | 27%
COC(=O)C1=C(C)N(C)C(=O)NC1c1ccc(O)c(Cl)c1 (centres undefined) | -3%
COc1ccc(CCC(=O)N2CCN(S(=O)(=O)c3ccc(C)cc3)CC2)cc1 | -6%
O=C(C1CCCN(S(=O)(=O)c2ccc(Br)cc2)C1)N1CCOCC1 (centres undefined) | -3%
Cc1ccc(CNC(=O)[C@@H](NC(=O)C2CCN(C(=O)[C@@H]3CCCN3)CC2)C(C)C)cc1 | -5%
CCS(=O)(=O)N1CCN(C(=O)c2ccc(-c3ccccc3)cc2)CC1 | -6%
O=C(CCC(=O)N1CCN(S(=O)(=O)c2ccccc2)CC1)c1ccc(Br)cc1 | -7%
CN(C)C(=O)N1CCCC(C(=O)NCc2ccccc2)C1 (centres undefined) | -9%
O=C(CSc1nc2ccccc2n1Cc1cccc(C(F)(F)F)c1)NCc1ccccc1 | 17%
CNC(=O)OCCSCCS(=O)(=O)c1ccc(Cl)cc1 | 9%
Cc1ccc(CSc2cn(CC(=O)N3CCCC3)c3ccccc23)cc1 | 1%
COc1ccc(S(=O)(=O)NCc2ccc(C(=O)N3CCN(c4ccccn4)CC3)cc2)cc1 | 11%
COc1ccc(OC)c(CN2CCCCCC2)c1 | 0%
CCN(C(=O)c1cc2c(=O)n(CC)c3ccccc3c2s1)c1cccc(C(F)(F)F)c1 | -12%

7 records drawn at random from the list so far:
SMILES | VDR inhibitor
CCc1ccc(CN2CCN(C(=O)c3cccc(OC)c3OC)CC2)cc1 | ?
CNC(=O)OCCSCCS(=O)(=O)c1ccc(Cl)cc1 | 9%
O=C(CSc1nc2ccccc2n1Cc1cccc(C(F)(F)F)c1)NCc1ccccc1 | 17%
COc1ccc(OC)c(CN2CCCCCC2)c1 | 0%
CCN(C(=O)c1cc2c(=O)n(CC)c3ccccc3c2s1)c1cccc(C(F)(F)F)c1 | -12%
CCN(CC)CCNC(=O)c1ccc(NC(=O)c2c(F)cccc2Cl)cc1 | -11%
CC(=O)c1cccc(NC(=O)c2ccc3c(c2)OCO3)c1 | 79µM*

The listing picks up, repeating the 4 entries before the break.
SMILES | VDR inhibitor
Cc1ccc(CSc2cn(CC(=O)N3CCCC3)c3ccccc23)cc1 | 1%
COc1ccc(S(=O)(=O)NCc2ccc(C(=O)N3CCN(c4ccccn4)CC3)cc2)cc1 | 11%
COc1ccc(OC)c(CN2CCCCCC2)c1 | 0%
CCN(C(=O)c1cc2c(=O)n(CC)c3ccccc3c2s1)c1cccc(C(F)(F)F)c1 | -12%
O=C(COc1ccc(Br)cc1Cl)NC(=S)N1CCc2ccccc21 | 4%
CCCOc1ccc(-c2c(C(=O)N/N=C/C3CCCCC3)nnn2-c2nonc2N)cc1 | 7%
COc1ccc(NS(=O)(=O)c2cccs2)c(OC)c1 | 2%
CC(C)(C)N(Cc1ccccc1)C(=O)c1ccc(Br)o1 | 10%
CC(C)(C)NC(=O)CSc1nc2ccc(NC(=O)CSc3nnc(N)s3)cc2s1 | -11%
Nn1c(SCc2nc3ccccn3c2Br)nnc1-c1cccnc1 | -6%
Cc1[nH]c2c(Cl)cccc2c(=O)c1CN1CCCC1 | 3%
O=C(CN1C(=O)C2(SCC(=O)N2c2cccc(Cl)c2)c2ccccc21)NC1CCCCC1 (centres undefined) | 7%
COc1ccccc1N(C)S(=O)(=O)c1ccc(C(=O)NC2=NCCS2)cc1 | -2%
COc1ccc(Br)cc1CN(C)C(C)C(=O)Nc1cc([N+](=O)[O-])ccc1OC (centres undefined) | -18%
CC(C)CCNC(=O)c1cnc2sc(N3CCCCCC3)nn2c1=O | 10%
Cc1ccc(-c2csc(-c3cc(C)on3)n2)cc1 | -3%
COc1cc(/C=N/NC(=O)c2cccnc2)ccc1OC(=O)c1ccco1 | 27%
CC1(C)CC(=O)C2=C(C1)OC1=C(C(=O)CC(C)(C)C1)C2c1ccc(O)c([N+](=O)[O-])c1 | 5%
Cc1cc(-c2ccc(C)c(S(=O)(=O)N3c4ccccc4CC3C)c2)on1 (centres undefined) | 10%
NC(=O)CC[C@@H]1NC(=O)[C@@H]2CCCN2C(=O)c2cc([N+](=O)[O-])cc(I)c2NCCCC[C@@H](C(=O)NC(CC(=O)O)C(N)=O)NC1=O (some centres undefined) | -5%
COc1ccccc1NC(=O)/C=C1\SCC(=O)N1C | 14%
Cc1ccc(C(=O)CSC2=C(C#N)C(c3ccco3)C3=C(CCCC3=O)N2)cc1 (centres undefined) | -29%
O=c1c2ccsc2ncn1Cc1ccc(Cl)cc1 | -5%
CN1CCN(c2ccc(-c3ccnn3C(=O)Nc3cccc(C(F)(F)F)c3)cc2)CC1 | 0%
O=C(CCc1nc(-c2ccccc2)no1)N1CCCC1 | -12%
COCCN1CN(S(=O)(=O)c2cccc(Cl)c2)c2nc3ccccc3nc21 | 0%
O=C(NCC(c1ccco1)N1CCOCC1)c1cccc(Cl)c1 (centres undefined) | -2%
COc1ccc(CCNC(=O)C2CC3Cn4c(nc5cc6ccccc6cc54)C3N2C)cc1 (centres undefined) | -11%
COc1cccc(NC(=O)Nc2nnc(Cc3ccccc3)s2)c1 | -11%

Continuation.
SMILES | VDR inhibitor
O=c1oc2ccccc2cc1-c1cn2cc(Cc3ccccc3F)sc2n1 | 6%
COc1ccc(CC(=O)NNC(=O)COc2ccc3ccccc3c2)cc1 | -6%
Clc1ccc(Nc2ccc(NCc3ccccc3)nn2)cc1 | -3%
CN(Cc1ccccc1)S(=O)(=O)c1cn(C)cn1 | 10%
Cc1ccc(-c2cc(NC(=O)C(C)Oc3ccc(C)c(C)c3)on2)cc1 (centres undefined) | 12%
Cc1ccc(NC(=O)COC(=O)Cc2csc(-c3cccc(F)c3)n2)cc1C | -18%
CCCOc1ccc(/C(O)=C2/C(=O)C(=O)N(CCCn3ccnc3)C2c2cccs2)cc1 (centres undefined) | 18%
COC(=O)c1ccc(C(=O)N2CCCC(CNC(=O)c3ccc(F)cc3)C2)cc1 (centres undefined) | -16%
Cc1ccc(C(=O)OCC(=O)N2CCOCC2)cc1 | 11%
COc1ccc(NS(=O)(=O)c2ccc(C(=O)Nc3c(C)n(C)n(-c4ccccc4)c3=O)cc2)cc1 | -20%
CCn1c(SCc2nc3scc(-c4ccccc4)c3c(=O)[nH]2)nnc1-c1cccs1 | 0%
CC1CCN(S(=O)(=O)c2ccc3c(c2)oc(=O)n3CC(=O)NC(C)c2ccccc2)CC1 (centres undefined) | 5%
CCN(C(=O)C1CCCN(c2nc(-c3ccc(OC)cc3)no2)C1)c1ccccc1F (centres undefined) | -1%
O=C(NCc1ccncc1)c1ccc(NS(=O)(=O)c2cccc([N+](=O)[O-])c2)cc1 | -10%
CCOC(=O)c1c(C)[nH]c(C(=O)OCC(=O)NC(C)(C)C)c1C | 2%
O=C(NCc1ccccc1Cl)C1CCC(CNc2nc(=S)[nH]c3ccccc23)CC1 (centres undefined) | -16%
NC(=O)C1CCN(C(=O)c2ccc(NC3=NC4CS(=O)(=O)CC4S3)cc2)CC1 (centres undefined) | -14%
O=c1c2c3c(sc2ncn1/N=C/c1ccc(Br)o1)CCCC3 | -4%
Cc1cn2c(=O)cc(COC(=O)c3cccc(NC(=O)COc4ccccc4Cl)c3)nc2s1 | 3%
O=C1CCCN1CCCNCC(=O)N1c2ccccc2Sc2ccccc21 | -22%
CN(C(=O)COC(=O)/C=C/c1ccccc1[N+](=O)[O-])c1ccccc1 | -14%
O=C(c1cccs1)N1CCN=C1SCc1ccc(Cl)cc1 | -8%
CC(=O)c1c(C)oc2ccc(N(C(=O)Oc3ccccc3)S(=O)(=O)c3ccc(C(C)(C)C)cc3)cc12 | -6%
CN1C(=O)C2ON(c3ccccc3)C(c3cccs3)C2C1=O (centres undefined) | 12%
CCOC(CCn1ccc(O)c(Cc2ccc(Cl)cc2)c1=O)OCC | -1%

(continued)
SMILES | VDR inhibitor
CCN(CC)S(=O)(=O)c1ccc(OCC2CCCCO2)c([N+](=O)[O-])c1 (centres undefined) | -3%
COc1ccc(-c2nc(CS(=O)(=O)CC(=O)NCc3cccc(OC)c3OC)c(C)o2)cc1 | -18%
COC(=O)C(C(C)C)N(Cc1cc(OC)cc(OC)c1)S(=O)(=O)CCl (centres undefined) | 4%
O=C1C(Cc2ccc(F)cc2)SC(=Nc2ccccc2)N1c1ccccc1 (centres undefined) | -3%
CN(C)CCN(C(=O)c1ccc2ccccc2c1)c1nc2c(F)cc(F)cc2s1 | 13%
CCOC(=O)C1=C(COc2ccc(C)cc2)NC(=O)NC1c1cc(C)ccc1C (centres undefined) | -5%
O=[N+]([O-])c1cc(S(=O)(=O)Nc2cccc(Cl)c2)ccc1N/N=C/c1ccc(N2CCOCC2)cc1 | 0%
Cc1onc(-c2ccccc2)c1CNS(=O)(=O)c1ccccc1[N+](=O)[O-] | 0%
CCOC(=O)c1ccc(-c2ccc(/C=C(\C#N)C(=O)Nc3ccc(C)cc3)o2)cc1 | 5%
COc1ccc(CSc2nc(C)cc(C)c2S(C)(=O)=O)cc1 | 22%
Cc1cccc(N2CCN(Cc3cc(=O)n4ccsc4n3)CC2)c1C | 8%
Cc1c(Cl)cccc1NC(=O)c1oc2ccc(S(=O)(=O)N3CCCCCC3)cc2c1C | 2%
Cc1ccc(-n2nc3c(=O)n(C(C)C(=O)NCc4ccccc4Cl)nc(C)c3c2C)cc1 (centres undefined) | -4%
O=C(Nc1ccccc1C(=O)N/N=C/c1ccco1)c1ccc(Cl)cc1 | -26%
COc1ccc(NC(=O)CSc2nc(-c3ccc(F)cc3)c3cccc(C)c3n2)cc1 | 2%
S=C(NCCCN1CCN(CCCNC(=S)NC2CCCCC2)CC1)NC1CCCCC1 | 0%
C/C(CC(=O)Nc1ccc2c(c1)OCCO2)=N\NC(=O)c1ccccn1 | -15%
NCCc1ccc(O)c(O)c1 | -1%&-1%&9%&-2%
O=C(NCC(c1ccco1)N1CCCC1)c1cc2cc(Cl)ccc2o1 (centres undefined) | -7%
NC(=NC1CCCCC1)c1ccc([N+](=O)[O-])cc1 | -3%
Cc1ccc2c(=O)cc(C(=O)Nc3sc4c(c3C(=O)NCc3cccnc3)CCCC4)oc2c1 | 19%
CCOc1cc(/C=C(\C#N)c2nc(-c3cccs3)c(NC(C)=O)s2)ccc1O | 0%
O=C1CCc2cc(NS(=O)(=O)c3ccc(Br)cc3)cc3c2N1CC3 | -4%
O=C(C1=C[C@@H](c2ccc(C(F)(F)F)cc2)C[C@@H](OCCCCO)O1)N1CCN(Cc2ccccc2)CC1 | 9%
Cc1ccc(S(=O)(=O)Cn2nnnc2CN(Cc2ccco2)CC2CCCO2)cc1 (centres undefined) | 5%

Next compounds follow.
SMILES | VDR inhibitor
Cc1n[nH]c(=O)c2c(NC(=O)COC(=O)COc3cccc(Br)c3)oc(C)c12 | -17%
O=C(CSc1nc2ccccc2nc1N1CCCCC1)N1CCN(c2ccccc2)CC1 | -18%
Cc1ccc(S(=O)(=O)N2CCOCC2)cc1C(=O)Nc1ccncc1 | 3%
O=C(NC1CCCCC1)c1cc([N+](=O)[O-])ccc1N1CCCC1 | -4%
C/C(=C\C(=O)c1ccc(C)o1)Nc1ccc(C(=O)O)cc1C | -1%
CCS(=O)(=O)c1ccc(O)c(NC(=O)CCCC(=O)O)c1 | -6%
Cc1ccc(C)c(Nc2ncnc(N)c2[N+](=O)[O-])c1 | 1%
COc1ccc(-c2cc(C(F)(F)F)n3nc(C(=O)NCCCn4ccnc4)cc3n2)cc1 | 10%
COc1ccc(C(=O)NCCc2csc(-c3ccc(Cl)cc3)n2)cc1 | 0%
CC(=O)NCC(=O)N[C@H](CCC(=O)O)C(=O)O | 6%&15%
CCOc1ccccc1Nc1nnc(Cc2ccccc2Cl)c(=O)[nH]1 | 0%
Cc1cccc(NC(=O)CCN2CCC(C(N)=O)CC2)c1 | 7%
Cc1ccc(NC(=O)COC(=O)CCc2ccccc2)cc1S(=O)(=O)N1CCOCC1 | -7%
Nc1ccc2nc(SCc3cccc(F)c3)sc2c1 | 2%

A portion of the library. The share of hits here may be higher or lower than overall.
